Compound activity (PubChem BioAssay)
LANA-H2B inh = blocks KSHV LANA binding to histone H2A/H2B; actives 0.6% (n = 320,000); inhibition, % (test concentration not listed); Q9QR71; cell-free LANA-H2A/H2B peptide, fluorescence polarization; AID 2629; in the data active means inhibition mostly above about 10%, no sharp cut-off; inactive means mostly below about 6.7%;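 further: stock transfer was 7.5 nL into about 10 µL; 0% = median of vehicle wells and 100% = median of positive control wells; one replicate is shown; the record names a cut of 25% in any replicate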
HNF4A DNA FP = change in binding of human HNF4 alpha to DNA. P41235. HNF4a-FITC DNA binding, fluorescence polarization, 1 h. activity change, % at 10 µM. actives 0.3% (n = 360,000). AID 1224865; in the data active means activity change above about 30%, passing the limit was not always enough;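 further: controls were the assay level and a saturating level of protein; the project sought stronger binding though the title names inhibitors; some compounds called inactive have numbers as strong as hits; positive values seem to mean higher polarization but the record does not say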
Target sequence (P41235 whole entry, looked up): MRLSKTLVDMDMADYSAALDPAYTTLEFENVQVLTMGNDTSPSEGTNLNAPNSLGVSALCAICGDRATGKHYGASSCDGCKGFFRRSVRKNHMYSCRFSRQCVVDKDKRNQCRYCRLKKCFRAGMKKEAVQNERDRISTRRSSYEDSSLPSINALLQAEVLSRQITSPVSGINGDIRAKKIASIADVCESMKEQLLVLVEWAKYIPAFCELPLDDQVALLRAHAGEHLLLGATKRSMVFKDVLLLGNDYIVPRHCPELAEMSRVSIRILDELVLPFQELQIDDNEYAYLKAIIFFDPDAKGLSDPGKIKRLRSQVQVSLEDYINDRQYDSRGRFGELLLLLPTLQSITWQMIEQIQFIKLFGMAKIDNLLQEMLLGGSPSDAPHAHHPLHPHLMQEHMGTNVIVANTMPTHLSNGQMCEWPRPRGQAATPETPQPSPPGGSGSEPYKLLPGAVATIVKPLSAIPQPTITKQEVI
ALR inh = blocks human ALR sulfhydryl oxidase activity; P55789; AID 485317; actives 3.8% (n = 290,000); inhibition, % (no concentration beside the values); purified ALR, DTT oxidation, H2O2 HRP-luminol luminescence;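 active means mean and each replicate at 75% or more; inconclusive means only one of the two met; inactive means neither met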;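 further: stock transfer was 7.5 nL into about 7.5 µL; 0% = neutral wells and 100% = wells with inactivated enzyme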
Target sequence (P55789 whole entry, looked up): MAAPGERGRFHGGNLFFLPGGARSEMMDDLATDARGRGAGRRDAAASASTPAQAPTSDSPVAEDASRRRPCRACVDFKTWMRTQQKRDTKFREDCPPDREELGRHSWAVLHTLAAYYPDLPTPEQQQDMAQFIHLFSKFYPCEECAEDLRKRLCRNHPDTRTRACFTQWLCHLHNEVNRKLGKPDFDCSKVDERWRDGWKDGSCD
B2AR ag = human beta-2 adrenergic receptor agonism by FAP | P07550 | Am2.2-beta2AR cells, FAP receptor internalization, flow cytometry; reference of the scale not given here | response, % (concentration not given with the values) | actives 0.43% (n = 340,000) | AID 504454;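 active means response above a set limit, near 3 SD of response in nonfluorescent compounds, cut at about 42% in these data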;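 further: stock transfer was 100 nL into about 11 µL; a reference agonist was the positive control; negative values mostly stem from fluorescent compounds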
E coli growth = E. coli growth inhibition | OD600 absorbance (concentration not given with the values) | actives 0.21% (n = 330,000) | Escherichia coli growth, OD600, 23 h; active compounds read low | AID 1053175;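 active means OD600 absorbance below the run mean of sample wells minus 3.6 SD, in any replicate, cut at about 0.56 in these data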;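 further: stock transfer was 300 nL into about 60 µL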
UCH37 DUB inh = human UCH37 deubiquitinating enzyme inhibition | Q9Y5K5 | purified proteasome/UCH37, Ub-AMC cleavage fluorescence | inhibition, % (no concentration beside the values) | actives 0.33% (n = 330,000);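 active means mean of two replicates above 20%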;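 further: 0% = compound-free wells with enzyme and 100% = wells lacking proteasome; stock transfer was 100 nL into about 20 µL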
Target sequence (Q9Y5K5 whole entry, looked up): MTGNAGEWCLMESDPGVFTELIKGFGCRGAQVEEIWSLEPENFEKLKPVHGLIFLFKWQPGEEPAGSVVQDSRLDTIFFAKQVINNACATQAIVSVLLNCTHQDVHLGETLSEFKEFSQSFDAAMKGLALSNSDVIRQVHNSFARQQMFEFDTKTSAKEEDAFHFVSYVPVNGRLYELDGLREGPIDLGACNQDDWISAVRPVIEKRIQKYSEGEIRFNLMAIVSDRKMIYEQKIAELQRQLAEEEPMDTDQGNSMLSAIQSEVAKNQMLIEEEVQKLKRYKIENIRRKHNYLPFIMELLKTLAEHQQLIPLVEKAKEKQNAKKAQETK
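assay system = human UCH37 enzyme supplied as purified proteasome complex | amount = proteasome at 0.15 nM in the dispensed enzyme solution | schedule = 30 min compound-proteasome preincubation then 25 min substrate reaction, room temperature | measured by = fluorescence, ex 355 nm, em 460 nm | benchmarks = no-proteasome wells (full inhibition) and compound-free wells (no inhibition)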
FGF22 binding = FGF22 (human) thermal shift binding; AID 651658; recombinant FGF22 thermal shift, SYPRO orange fluorescence; percent of sucrose octasulfate shift, DMSO zero; actives 1.5% (n = 340,000); Q9HCT0; calls only at 9.99 µM;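 active means melting point raised past a set limit in the mean and every replicate; inconclusive means no clear call; three in four hits are not shown here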
An asterisk follows results filed as active. This is a subset; count on the stated rates, not on these rows.

Screening C=CCOc1nc2c(c(=O)n(C)c(=O)n2C)n1Cc1ccccc1Cl returned LANA-H2B inh 0.8, HNF4A DNA FP 0.3, ALR inh -11, B2AR ag -9, E coli growth 0.72 and UCH37 DUB inh 5.1.
CCn1nc(C)c(/C=N\NC(=O)c2ccc3c(c2)OCO3)c1C was read as LANA-H2B inh -6.0, HNF4A DNA FP 0.1, ALR inh -4 and B2AR ag -7.
Cc1cccc(C(=O)Nc2nnc(C3=COCCO3)o2)c1 was read as LANA-H2B inh inactive, HNF4A DNA FP -4.3, ALR inh 2, B2AR ag 1, E coli growth 0.66, UCH37 DUB inh 2.9 and FGF22 binding inactive.
Screening CCOC(=O)c1ccccc1NC(=O)Cn1cnc2c(cnn2-c2ccccc2)c1=O returned LANA-H2B inh 0.2, HNF4A DNA FP 0.4, ALR inh -14, B2AR ag 5, E coli growth 0.68 and UCH37 DUB inh -0.6.
Cc1cccc(CSCc2ccc(C(=O)NC3CCCC3)o2)c1 was read as LANA-H2B inh 2.2, HNF4A DNA FP 4.7, ALR inh inconclusive, B2AR ag -3, E coli growth 0.73, UCH37 DUB inh -0.1 and FGF22 binding inactive.
Cc1ccc(SCC(=O)NC2CCCCCC2)cc1 was read as LANA-H2B inh 1.3, HNF4A DNA FP -2.5, ALR inh -21, B2AR ag -3 and FGF22 binding inactive.
Screening COC(=O)c1cc2occc2n1CC(=O)Nc1ccc(C)cc1C returned LANA-H2B inh 3.0, HNF4A DNA FP -1.2, ALR inh 0, B2AR ag 11, E coli growth 0.69 and UCH37 DUB inh 1.0.
For O=C(Nc1ccccc1N1CCN(C(=O)c2ccccc2)CC1)c1cc2ccccc2o1 the results were LANA-H2B inh -1.1, HNF4A DNA FP -0.6, ALR inh -31, B2AR ag 18, E coli growth 0.76 and UCH37 DUB inh -0.3.
For Nc1cc(=O)[nH]c(SCC(=O)Nc2ccccc2Sc2ccc(Cl)cc2)n1 the results were LANA-H2B inh 0.3, HNF4A DNA FP -1.1, ALR inh -4, B2AR ag -5, E coli growth 0.68, UCH37 DUB inh 2.3 and FGF22 binding inactive.
For COCCNC(=O)c1nn(-c2cc(OC)cc(OC)c2)c(=O)c2ccccc12 the results were LANA-H2B inh -2.4, HNF4A DNA FP -0.2, ALR inh -3, B2AR ag -8, E coli growth 0.74 and UCH37 DUB inh 1.0.
`Cc1cc(N)n(-c2cc(C)c3ccccc3n2)n1` gave LANA-H2B inh 2.6, HNF4A DNA FP 0.9, B2AR ag -5, E coli growth 0.68 and UCH37 DUB inh 4.4.
C=CCc1cc(C=O)cc(OCC)c1OCc1ccc(Cl)cc1 was read as LANA-H2B inh -2.7, HNF4A DNA FP 3.5, ALR inh 14, B2AR ag 14, E coli growth 0.71, UCH37 DUB inh -0.4 and FGF22 binding inactive.
Cc1ccc(S(=O)(=O)N2CCN(C(=O)c3c(-c4ccccc4)noc3C)CC2)cc1C was read as LANA-H2B inh 1.7, HNF4A DNA FP -0.1, ALR inh -3, B2AR ag -2, E coli growth 0.7, UCH37 DUB inh 4.2 and FGF22 binding inactive.
CN(CC(=O)Nc1ccc(Cl)c(C(F)(F)F)c1)C(=O)c1cnccn1 was read as LANA-H2B inh -6.4, HNF4A DNA FP 2.6, ALR inh 4, B2AR ag -2, E coli growth 0.67, UCH37 DUB inh -1.4 and FGF22 binding inactive.
Screening Cc1cccc(C(=O)OC(C)C(=O)N2CCN(Cc3ccccc3)CC2)c1 (stereo unspecified) returned HNF4A DNA FP -4.0, B2AR ag -1, E coli growth 0.69 and UCH37 DUB inh 3.6.
For O=C(N/N=C/c1ccc(COc2ccc(Br)cc2)o1)c1ccco1 the results were LANA-H2B inh 0.0, HNF4A DNA FP 3.8, ALR inh -7, B2AR ag -9 and FGF22 binding inactive.
For COC(=O)C1=C(C)N(Cc2ccccc2)C(=O)N[C@H]1c1ccccc1 the results were LANA-H2B inh -9.1, HNF4A DNA FP -2.2, ALR inh -10, B2AR ag -1, UCH37 DUB inh -0.9 and FGF22 binding inactive.
For CCc1nn(C)c(N)c1C the results were LANA-H2B inh -3.7, HNF4A DNA FP -2.2, ALR inh -6, B2AR ag 8, E coli growth 0.7, UCH37 DUB inh 3.7 and FGF22 binding inactive.
Screening Oc1c(Br)cc(Br)cc1/C=N/c1nccs1 returned HNF4A DNA FP 0.2, ALR inh 1, B2AR ag 15 and FGF22 binding inactive.
Screening Fc1ccc(CSc2nsc(SCc3ccc(F)cc3)n2)cc1 returned LANA-H2B inh 5.2, HNF4A DNA FP 2.1, ALR inh 1, B2AR ag -6 and UCH37 DUB inh -0.8.
`O=C(O)CCN1C(=O)c2ccccc2Sc2ncccc21` gave LANA-H2B inh -2.1, HNF4A DNA FP 4.7, ALR inh 0, B2AR ag -4, E coli growth 0.67, UCH37 DUB inh -0.5 and FGF22 binding inactive.
Screening O=C(Nc1ccc(F)c(Cl)c1)c1ccccc1 returned LANA-H2B inh 0.5, HNF4A DNA FP -0.6, B2AR ag 4, E coli growth 0.64, UCH37 DUB inh 1.5 and FGF22 binding inactive.
`CCc1nnc(NC(=O)[C@@H]2CCCN2S(=O)(=O)c2ccc3c(c2)OCCO3)s1` gave LANA-H2B inh 6.0, HNF4A DNA FP 0.5, ALR inh -13, B2AR ag -1 and UCH37 DUB inh 0.4.
For Cc1noc(C)c1C(=O)OCC(=O)Nc1ccccc1C(=O)NC(C)c1ccccc1 (stereo unspecified) the results were LANA-H2B inh 1.0, HNF4A DNA FP 0.6, ALR inh 0, B2AR ag 14, E coli growth 0.72 and UCH37 DUB inh 0.3.
For CC1(C)CC(=O)C(C(=O)CCCCC(=O)C2C(=O)CC(C)(C)CC2=O)C(=O)C1 the results were LANA-H2B inh -3.7, HNF4A DNA FP 1.6, ALR inh -3, B2AR ag 1, E coli growth 0.68 and UCH37 DUB inh -2.6.
For CCOC(=O)C1=C(COC(=O)CNC(=O)c2ccc(C(C)(C)C)cc2)NC(=O)NC1C (stereo unspecified) the results were LANA-H2B inh -4.4, HNF4A DNA FP -2.2, ALR inh -1, B2AR ag 5, E coli growth 0.68, UCH37 DUB inh 0.1 and FGF22 binding inactive.
Screening Cc1cccc(NC(=O)c2cnc3ccccn3c2=O)c1 returned HNF4A DNA FP 2.2, B2AR ag -3 and FGF22 binding inactive.
Screening O=C(c1ccccc1)c1ccc(O)cc1O returned LANA-H2B inh 45*, HNF4A DNA FP -105, ALR inh 0, B2AR ag -15, E coli growth 0.67, UCH37 DUB inh 10 and FGF22 binding inactive.
Screening CSCCC(NC(=O)c1ccccc1Cl)C(=O)N1CCCC(C)C1 (stereo unspecified) returned HNF4A DNA FP -4.3, B2AR ag -2, E coli growth 0.64, UCH37 DUB inh 3.7 and FGF22 binding inactive.
Screening Cc1ccc(C)c(OCC(=O)Nc2ccncc2)c1 returned LANA-H2B inh 5.4, HNF4A DNA FP -2.3, ALR inh -3, B2AR ag -1, E coli growth 0.66, UCH37 DUB inh -1.2 and FGF22 binding inactive.
Screening O=C(NCCN1C(=O)S/C(=C\c2cccnc2)C1=O)c1cccc(OC(F)F)c1 returned LANA-H2B inh 2.8, HNF4A DNA FP 0.0, ALR inh -13, B2AR ag -3, E coli growth 0.73, UCH37 DUB inh 6.6 and FGF22 binding inactive.
COCC(C)NC(=O)C(C)Oc1ccccc1 (stereo unspecified) was read as LANA-H2B inh -2.0, HNF4A DNA FP 4.8, ALR inh 0, B2AR ag 1, E coli growth 0.7 and UCH37 DUB inh 0.4.
O=C(CCSCCc1ccccn1)Nc1ccccn1 was read as LANA-H2B inh 4.1, HNF4A DNA FP -0.6, ALR inh -1, B2AR ag -5, E coli growth 0.68 and UCH37 DUB inh 9.2.
Screening COc1cc(OC)c(C(=O)OC(C)C(=O)Nc2cccc(C(F)(F)F)c2)cc1OC (stereo unspecified) returned LANA-H2B inh -2.1, HNF4A DNA FP -2.7, ALR inh -13 and B2AR ag -2.
Screening Cc1nnc2sc(-c3ccccn3)nn12 returned LANA-H2B inh -4.9, HNF4A DNA FP 0.6, ALR inh -10, B2AR ag 2, E coli growth 0.67 and UCH37 DUB inh 0.5.
For CCN(CC)C(=O)CSc1nc2c(sc(=S)n2-c2ccccc2)c(=O)n1-c1ccc(OC)cc1OC the results were LANA-H2B inh 12, HNF4A DNA FP 1.8, B2AR ag 3, E coli growth 0.7, UCH37 DUB inh 5.7 and FGF22 binding inactive.
CC(C)C(=O)Nc1nnc(SCC(=O)Nc2ccc3c(c2)OCO3)s1 was read as LANA-H2B inh 4.0, HNF4A DNA FP 0.4, ALR inh 12, B2AR ag 7, E coli growth 0.69 and UCH37 DUB inh 1.9.
Screening CCOC(=O)C1C(=O)NC(N2CCOCC2)=NC1C(C)C (stereo unspecified) returned LANA-H2B inh -2.7, HNF4A DNA FP 1.6, ALR inh -1, B2AR ag -4, E coli growth 0.7 and UCH37 DUB inh 5.3.
Screening CCCn1c(N)c(C(=O)CN(C)CC(=O)Nc2ccccc2CC)c(=O)[nH]c1=O returned LANA-H2B inh 0.1, HNF4A DNA FP 0.0, ALR inh 0, B2AR ag 2, E coli growth 0.7, UCH37 DUB inh 3.2 and FGF22 binding inactive.

In the list so far, five have an aryl thioether with sulfur outside any ring.
Cc1ccc(SCC(=O)NC2CCCCCC2)cc1 was read as LANA-H2B inh 1.3, HNF4A DNA FP -2.5, ALR inh -21, B2AR ag -3 and FGF22 binding inactive.
For Nc1cc(=O)[nH]c(SCC(=O)Nc2ccccc2Sc2ccc(Cl)cc2)n1 the results were LANA-H2B inh 0.3, HNF4A DNA FP -1.1, ALR inh -4, B2AR ag -5, E coli growth 0.68, UCH37 DUB inh 2.3 and FGF22 binding inactive.
Screening Fc1ccc(CSc2nsc(SCc3ccc(F)cc3)n2)cc1 returned LANA-H2B inh 5.2, HNF4A DNA FP 2.1, ALR inh 1, B2AR ag -6 and UCH37 DUB inh -0.8.
For CCN(CC)C(=O)CSc1nc2c(sc(=S)n2-c2ccccc2)c(=O)n1-c1ccc(OC)cc1OC the results were LANA-H2B inh 12, HNF4A DNA FP 1.8, B2AR ag 3, E coli growth 0.7, UCH37 DUB inh 5.7 and FGF22 binding inactive.
CC(C)C(=O)Nc1nnc(SCC(=O)Nc2ccc3c(c2)OCO3)s1 was read as LANA-H2B inh 4.0, HNF4A DNA FP 0.4, ALR inh 12, B2AR ag 7, E coli growth 0.69 and UCH37 DUB inh 1.9.

Entries above that have a CF3 group, in the order listed:
CN(CC(=O)Nc1ccc(Cl)c(C(F)(F)F)c1)C(=O)c1cnccn1 was read as LANA-H2B inh -6.4, HNF4A DNA FP 2.6, ALR inh 4, B2AR ag -2, E coli growth 0.67, UCH37 DUB inh -1.4 and FGF22 binding inactive.
Screening COc1cc(OC)c(C(=O)OC(C)C(=O)Nc2cccc(C(F)(F)F)c2)cc1OC (stereo unspecified) returned LANA-H2B inh -2.1, HNF4A DNA FP -2.7, ALR inh -13 and B2AR ag -2.
